Yeast UUG start: modulators of yeast start codon fidelity, primary screen, whole organism, S. cerevisiae, single point, plate reader; activity score, % at 18.7 µM; AID 602363, 2012; 350,000 tested, 0.13% active; S. cerevisiae UUG-firefly luciferase reporter, luminescence/redox ratio;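 active = replicate mean at a twofold rise or more, about +100% in these data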;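 note: firefly luciferase made from a UUG start codon reports start codon fidelity; reporter light over untreated wells divided by growth signal over untreated wells; some hits fall short of that in this replicate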
Env fusion inh: inhibitors of HIV-1 Env-driven cell-cell fusion, primary screen, HeLa-JRFL effector, CEM21 target cells, luciferase; inhibition, % at 12.3 µM; 360,000 tested, 1.1% active;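 active = mean replicate inhibition score of at least 50 and every replicate individually at or above 50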;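 note: 0% = plate neutral controls and 100% = maraviroc near 300 nM; one replicate is shown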
* = called active by the depositor; [ ] = dose if it differs, or a comment. These rows are one share of the data (hit frequency here may not be typical).

SMILES | Yeast UUG start | Env fusion inh
C[C@H](CO)N1C[C@H](C)[C@@H](CN(C)C)OCCCC[C@H](C)Oc2ccc(NC(=O)c3ccncc3)cc2C1=O | -1.4 | -8.7[16.7 µM]
COCC(=O)Nc1ccc2c(c1)[C@H]1C[C@@H](CC(=O)NCCc3ccccc3)O[C@H](CO)[C@H]1O2 | 0.0 | 4.5[16.7 µM]
CN(C)C(=O)c1ccc(-c2ccc([C@H]3[C@H](C#N)N(C(=O)Cc4ccccn4)[C@H]3CO)cc2)cc1 | 0.3 | -22.2[16.7 µM]
C[C@@H]1CN([C@H](C)CO)C(=O)c2cccc(NC(=O)Nc3ccc(C(F)(F)F)cc3)c2O[C@@H]1CN(C)C(=O)Nc1ccccc1 | -0.2 | -2.7[16.7 µM]
O=C(C[C@@H]1CC[C@@H]2[C@H](COC[C@@H](O)CN2C(=O)c2ccncc2)O1)NCc1cccc(F)c1 | -3.5 | 4.7[16.7 µM]
C[C@H]1CN([C@@H](C)CO)C(=O)c2cc(NS(=O)(=O)c3ccc(Cl)cc3)ccc2O[C@@H]1CN(C)S(=O)(=O)c1ccc(Cl)cc1 | -7.6 | -22.7[16.7 µM]
C[C@H](CO)N1C[C@H](C)[C@H](CN(C)Cc2ccc(C(F)(F)F)cc2)Oc2ccc(NC(=O)C3CCCCC3)cc2CC1=O | 10.8 | -20.4[16.7 µM]
Cc1ccc(S(=O)(=O)N(C)C[C@@H]2OCCCC[C@@H](C)Oc3ccc(NC(=O)CCC(F)(F)F)cc3C(=O)N([C@@H](C)CO)C[C@@H]2C)cc1 | 11.9 | 0.6[16.7 µM]
Cc1noc(C)c1NC(=O)N(C)C[C@@H]1OCCCC[C@H](C)Oc2ccc(NC(=O)Nc3ccccc3)cc2C(=O)N([C@@H](C)CO)C[C@@H]1C | -4.7 | -12.9[16.7 µM]
O=C(NCC[C@H]1CC[C@@H](NC(=O)Nc2cc(F)ccc2F)[C@H](CO)O1)Nc1ccc(Cl)cc1 | 2.5 | 0.2[16.7 µM]
C[C@@H]1CN([C@@H](C)CO)C(=O)c2cc(NS(=O)(=O)c3ccccc3)ccc2O[C@@H](C)CCCCO[C@H]1CN(C)C(=O)C1CCCCC1 | -12.1 | -52.9[16.7 µM]
C[C@@H]1CN([C@@H](C)CO)C(=O)Cc2cc(NC(=O)Nc3ccc(C(F)(F)F)cc3)ccc2O[C@@H]1CN(C)Cc1ccc(C(F)(F)F)cc1 | 13.1 | -2.9[16.7 µM]
CNC[C@@H]1Oc2ncc(-c3ccccc3F)cc2C(=O)N([C@H](C)CO)C[C@@H]1C | 0.0 | 6.9[16.7 µM]
C[C@@H]1CCCCO[C@@H](CN(C)S(C)(=O)=O)[C@@H](C)CN([C@@H](C)CO)C(=O)c2cc(NC(=O)CCCN(C)C)ccc2O1 | 3.8 | -3.7[16.7 µM]
C[C@@H]1CN([C@@H](C)CO)C(=O)c2cc(NS(=O)(=O)c3cccs3)ccc2O[C@H]1CN(C)Cc1ccccc1 | -15.7 | -3.3[16.7 µM]
O=C(NCC[C@@H]1CC[C@@H](NC(=O)C2CCCC2)[C@H](CO)O1)Nc1ccc(Cl)cc1 | -1.8 | -6.1[16.7 µM]
COc1ccc(NC(=O)Nc2ccc3c(c2)C(=O)N([C@H](C)CO)C[C@@H](C)[C@H](CN(C)C(=O)Nc2ccc4c(c2)OCO4)OCCCC[C@@H](C)O3)cc1 | -9.8 | -3.3[16.7 µM]
C[C@@H]1CCCCO[C@@H](CN(C)Cc2ccc(C(=O)O)cc2)[C@H](C)CN([C@@H](C)CO)C(=O)c2cc(NC(=O)c3ccccc3)ccc2O1 | 1.4 | -48.8[16.7 µM]
CO[C@@H]1CN(C)C(=O)c2cc(NC(=O)NC(C)C)ccc2OC[C@H](C)N(C(=O)CC2CC2)C[C@@H]1C | 0.7 | -16.3[16.7 µM]
CCC(=O)N(C)C[C@@H]1Oc2cc(-c3ccc(C)cc3)ccc2S(=O)(=O)N([C@H](C)CO)C[C@@H]1C | 3.8 | -6.4[16.7 µM]
C[C@H](CO)N1C[C@H](C)[C@H](CN(C)Cc2ccc(-c3ccccc3)cc2)Oc2c(NS(=O)(=O)c3ccc(Cl)cc3)cccc2C1=O | 5.9 | -27.9[16.7 µM]
C[C@@H]1CN([C@@H](C)CO)C(=O)c2cc(-c3ccccc3F)cnc2O[C@@H]1CN(C)C(=O)NC1CCCC1 | 13.7 | -7.3[16.7 µM]
COc1ccc(NC(=O)N(C)C[C@H]2Oc3ncc(C#CCC(C)C)cc3C(=O)N([C@H](C)CO)C[C@H]2C)cc1 | 9.2 | -4.9[16.7 µM]
COc1ccc(S(=O)(=O)Nc2ccc3c(c2)C(=O)N([C@@H](C)CO)C[C@H](C)[C@@H](CN(C)Cc2ccc4c(c2)OCO4)OCCCC[C@@H](C)O3)cc1 | 18.4 | -104.6[16.7 µM]
CC(C)CC#Cc1ccc2c(c1)O[C@H](CN(C)C(=O)c1ccccc1F)[C@H](C)CN([C@@H](C)CO)S2(=O)=O | -10.8 | 31.3[16.7 µM]
O=C(Nc1cccc(Cl)c1)N[C@@H]1CC[C@@H](CCNC(=O)C2CC2)O[C@H]1CO | 5.2 | -13.7[16.7 µM]
Cc1ccc(S(=O)(=O)N(C)C[C@H]2OCCCC[C@H](C)Oc3ccc(NS(=O)(=O)c4ccccc4)cc3C(=O)N([C@@H](C)CO)C[C@H]2C)cc1 | -10.6 | -33.5[16.7 µM]
C[C@@H]1CN([C@@H](C)CO)C(=O)c2cccc(NC(=O)Nc3ccccc3)c2O[C@@H]1CN(C)Cc1ccc(C(=O)Nc2ccccc2N)cc1 | 5.4 | -124.5[16.7 µM]
C[C@@H]1CCCCO[C@H](CN(C)S(=O)(=O)c2cn(C)cn2)[C@H](C)CN([C@@H](C)CO)C(=O)c2cc(NC(=O)C3CCCCC3)ccc2O1 | 6.9 | 36.3[16.7 µM]
CCCNC(=O)N1[C@H](C#N)[C@H](c2ccc(C#Cc3ccc(F)cc3)cc2)[C@@H]1CO | -9.0 | 21.0[16.7 µM]
Cc1ccc(S(=O)(=O)N2C[C@@H](O)COC[C@@H]3O[C@@H](CC(=O)NCc4ccc5c(c4)OCO5)CC[C@H]32)cc1 | 17.8 | -82.6[16.7 µM]
COCC(=O)N(C)C[C@@H]1Oc2ncc(C#Cc3ccc(F)cc3)cc2C(=O)N([C@@H](C)CO)C[C@H]1C | 8.8 | -15.9[16.7 µM]
COc1ccc(NC(=O)N(C)C[C@H]2Oc3ccc(NS(=O)(=O)c4cn(C)cn4)cc3CC(=O)N([C@H](C)CO)C[C@H]2C)cc1 | -13.4 | -5.8[16.7 µM]
CCNC(=O)C[C@@H]1CC[C@@H]2[C@@H](COc3ccc(NC(=O)Nc4ccccc4F)cc3C(=O)N2C)O1 | 0.1 | 30.9[16.7 µM]
CN1C(=O)c2cc(NC(=O)c3cc(F)cc(F)c3)ccc2OC[C@@H]2O[C@H](CC(=O)O)CC[C@H]21 | -2.1 | -11.4[16.7 µM]
CCS(=O)(=O)N[C@H]1C=C[C@H](CC(=O)N2CCCCC2)O[C@H]1CO | -0.5 | -9.2[16.7 µM]
CCC(=O)Nc1ccc2c(c1)OC[C@@H](C)N(C(C)=O)C[C@@H](C)[C@H](OC)CN(C)C2=O | -5.8 | 22.2[16.7 µM]
C[C@@H]1CN([C@H](C)CO)C(=O)c2cc(NS(=O)(=O)c3ccc(F)cc3)ccc2O[C@H]1CN(C)S(=O)(=O)c1cccs1 | 3.3 | 0.3[16.7 µM]
O=C(N[C@H]1C=C[C@H](CC(=O)N2CCCCC2)O[C@H]1CO)c1ccccn1 | -5.8 | 4.1[16.7 µM]
CO[C@@H]1CN(C)C(=O)c2cc(NS(C)(=O)=O)ccc2OC[C@H](C)N(Cc2nccs2)C[C@@H]1C | -1.5 | -4.4[16.7 µM]
C[C@H]1CCCCO[C@@H](CN(C)C(=O)Nc2ccc3c(c2)OCO3)[C@@H](C)CN([C@@H](C)CO)C(=O)c2cc(N(C)C)ccc2O1 | 35.3 | 20.0[16.7 µM]
CC(C)NC(=O)N(C)C[C@H]1Oc2cc(C#CCN(C)C)ccc2S(=O)(=O)N([C@@H](C)CO)C[C@@H]1C | -6.5 | -33.7[16.7 µM]
C[C@H](CO)N1C[C@H](C)[C@@H](CN(C)C(=O)Nc2ccc3c(c2)OCO3)Oc2ccc(NC(=O)c3ccncc3)cc2CC1=O | -4.7 | -1.3[16.7 µM]
CNC[C@@H]1Oc2ccc(NC(=O)CCC(F)(F)F)cc2C(=O)N([C@H](C)CO)C[C@H]1C | 16.7 | 4.5[16.7 µM]
CO[C@H]1CN(C)C(=O)c2cc(NC(=O)Nc3cccc(F)c3)ccc2OC[C@H](C)N(C(C)=O)C[C@H]1C | 2.4 | 14.1[16.7 µM]
COc1cccc(S(=O)(=O)N[C@H]2CC[C@@H](CC(=O)NC3Cc4ccccc4C3)O[C@@H]2CO)c1 | -6.8 | 2.6[16.7 µM]
C[C@@H]1CN([C@@H](C)CO)C(=O)c2cc(NC(=O)NC3CCCCC3)ccc2O[C@@H](C)CCCCO[C@@H]1CN(C)C(=O)c1ccccc1 | -1.1 | 7.1[16.7 µM]
O=C(CN1CCOCC1)N[C@H]1CC[C@@H](CCNC(=O)Nc2cc(F)ccc2F)O[C@H]1CO | -6.8 | -17.6[16.7 µM]
C[C@H](CO)N1C[C@H](C)[C@H](CN(C)C(=O)C2CCCCC2)OCCCC[C@H](C)Oc2ccc(NC(=O)CCC(F)(F)F)cc2C1=O | 18.7 | -9.1[16.7 µM]
O=C(N[C@@H]1CC[C@@H](CCNS(=O)(=O)c2ccc(F)cc2)O[C@H]1CO)C1CCCC1 | -0.3 | -18.5[16.7 µM]
CN1C(=O)c2cc(NC(=O)Cc3ccccc3)ccc2OC[C@@H]2O[C@@H](CC(=O)NCC3CC3)CC[C@@H]21 | 0.9 | -9.1[16.7 µM]
C[C@@H](NC(=O)C[C@@H]1CC[C@@H](NC(=O)Nc2ccc3c(c2)OCO3)[C@H](CO)O1)c1ccccc1 | 1.7 | 0.2[16.7 µM]
C[C@@H]1CN([C@H](C)CO)S(=O)(=O)c2ccc(C3=CCCCC3)cc2O[C@@H]1CN(C)Cc1ccccn1 | -23.6 | -3.7[16.7 µM]
C[C@@H]1CCCCO[C@@H](CN(C)Cc2ccc(C(=O)O)cc2)[C@H](C)CN([C@@H](C)CO)C(=O)c2cc(NC(=O)Nc3ccc(C(F)(F)F)cc3)ccc2O1 | 28.1 | 1.1[16.7 µM]
O=C(C[C@@H]1C=C[C@@H](NC(=O)CN2CCOCC2)[C@@H](CO)O1)NC1CCC1 | -6.3 | 8.0[16.7 µM]
Cc1noc(C)c1NC(=O)Nc1ccc2c(c1)C(=O)N([C@H](C)CO)C[C@H](C)[C@H](CN(C)C(=O)CCCN(C)C)OCCCC[C@@H](C)O2 | -7.9 | -4.7[16.7 µM]
C[C@@H]1CCCCO[C@@H](CN(C)C)[C@@H](C)CN([C@H](C)CO)C(=O)c2cc(NS(=O)(=O)c3ccccc3)ccc2O1 | -5.7 | 10.4[16.7 µM]
C[C@H]1CN([C@@H](C)CO)C(=O)c2cc(NC(=O)CCC(F)(F)F)ccc2O[C@@H]1CN(C)Cc1ccccc1 | -3.4 | -6.2[16.7 µM]
C=CC[C@]1(C(=O)N2CCOCC2)COC(c2ccc(OCCCO)cc2)=N1 | 9.1 | -25.8[16.7 µM]
CO[C@@H]1CN(C)C(=O)c2ccc(NC(=O)C3CC3)cc2OC[C@H](C)N(C(=O)C2CCCCC2)C[C@H]1C | 34.9 | 2.8[16.7 µM]
New compounds follow:
SMILES | Yeast UUG start | Env fusion inh
Cc1ccc(S(=O)(=O)N[C@H]2C=C[C@@H](CC(=O)N3CCN(c4ccccc4)CC3)O[C@H]2CO)cc1 | -8.1 | -1.4[16.7 µM]
COc1ccc(NC(=O)N(C)C[C@H]2OCCCC[C@@H](C)Oc3ccc(NC(=O)C4CCCCC4)cc3C(=O)N([C@@H](C)CO)C[C@@H]2C)cc1 | -0.8 | -9.8[16.7 µM]
O=C(C[C@@H]1C[C@H]2c3cc(NC(=O)C4CCOCC4)ccc3O[C@H]2[C@H](CO)O1)NC1CCCC1 | 7.6 | 0.6[16.7 µM]
C/C=C/c1ccc2c(c1)O[C@H](CN(C)C(=O)c1cnccn1)[C@H](C)CN([C@@H](C)CO)S2(=O)=O | 1.9 | -6.0[16.7 µM]
C[C@H]1CN([C@@H](C)CO)C(=O)c2cc(C#CC3CC3)cnc2O[C@@H]1CN(C)C(=O)Nc1ccccc1 | 12.7 | -5.2[16.7 µM]
Cc1ccc(S(=O)(=O)N[C@H]2CC[C@@H](CCn3cc(-c4ccccc4F)nn3)O[C@@H]2CO)cc1 | 10.8 | 5.7[16.7 µM]
Cc1noc(C)c1NC(=O)N(C)C[C@@H]1Oc2ccc(NC(=O)CCCCCC(=O)Nc3ccccc3N)cc2CC(=O)N([C@H](C)CO)C[C@H]1C | 3.1 | -2.7[16.7 µM]
CO[C@H]1CN(C)C(=O)c2cc(NC(=O)NC(C)C)ccc2OC[C@@H](C)N(C(=O)CN(C)C)C[C@@H]1C | -14.1 | -5.3[16.7 µM]

Entries shown so far with two or more sulfur atoms (five):
SMILES | Yeast UUG start | Env fusion inh
C[C@H]1CN([C@@H](C)CO)C(=O)c2cc(NS(=O)(=O)c3ccc(Cl)cc3)ccc2O[C@@H]1CN(C)S(=O)(=O)c1ccc(Cl)cc1 | -7.6 | -22.7[16.7 µM]
C[C@@H]1CN([C@@H](C)CO)C(=O)c2cc(NS(=O)(=O)c3cccs3)ccc2O[C@H]1CN(C)Cc1ccccc1 | -15.7 | -3.3[16.7 µM]
Cc1ccc(S(=O)(=O)N(C)C[C@H]2OCCCC[C@H](C)Oc3ccc(NS(=O)(=O)c4ccccc4)cc3C(=O)N([C@@H](C)CO)C[C@H]2C)cc1 | -10.6 | -33.5[16.7 µM]
C[C@@H]1CN([C@H](C)CO)C(=O)c2cc(NS(=O)(=O)c3ccc(F)cc3)ccc2O[C@H]1CN(C)S(=O)(=O)c1cccs1 | 3.3 | 0.3[16.7 µM]
CO[C@@H]1CN(C)C(=O)c2cc(NS(C)(=O)=O)ccc2OC[C@H](C)N(Cc2nccs2)C[C@@H]1C | -1.5 | -4.4[16.7 µM]
